CtBP-E1A blk – qHTS Assay for Inhibitors of the CtBP/E1A Interaction; AlphaScreen GST-E1A/His-CtBP binding, 1536-well; stronger effect = lower value; control for the full effect not named in the record; AID 651724, 2012; activity change, % (concentration not given with the values); 340,000 compounds, 0.49% hits; CtBP / adenovirus E1A interaction (AlphaScreen); in the data active means activity change below about -65%; inconclusive means about -30% to -65%; inactive means above about -30%; note: % is set by controls: 0 for no effect and ±100 for the full control effect
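AlphaScreen with 125 nM GST-E1A and 125 nM His-CtBP (5X stocks) in Tris pH 8.0, 300 mM NaCl, BSA, Tween 20, TCEP. Compounds preincubated 2 h at 37 deg C, then glutathione donor/nickel acceptor beads added for 1 h at 37 deg C in dark.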
D2 potentiator – Beta-Arrestin HTS for Positive Allosteric Modulators of the Human D2 Dopamine Receptor: Potentiators | DiscoveRx D2 beta-arrestin cells, luminescence, 90 min; 100% = 57 uM dopamine signal | potentiation, % (concentration not given with the values) | 360,000 compounds, 0.23% hits | AID 624464, 2012; active = potentiation of 50% or more; inconclusive = 30% to 50%; inactive = 30% or less;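 note: tested on top of an EC20 dose of dopamine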
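PathHunter beta-arrestin assay in DiscoveRx D2 cells. Compounds were added with an EC20 of dopamine (50 nM final) for 90 min at 37 deg C. Luminescence was read 1 h after detection reagent, with 57 uM dopamine as the EC100 control.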
Six1-Eya2 inh – qHTS Assay for Inhibitors of the Six1/Eya2 Interaction | activity change, % (no concentration beside the values) | 360,000 compounds, 0.56% hits | Homeobox protein SIX1 (Homo sapiens) + Protein phosphatase EYA2 (Homo sapiens), … | AlphaScreen GST-Six1/His-Eya2 binding, biochemical; stronger effect = lower value; control for the full effect not named in the record; in the data active = activity change below about -65%; inconclusive = about -30% to -65%; inactive = above about -30%; note: % is set by controls: 0 for no effect and ±100 for the full control effect
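AlphaScreen luminescence read after one hour at 37 °C in darkness. Pin-transferred compounds met GST-Six1 and His-Eya2 protein (5X stock 250 nM/500 nM) plus glutathione donor and Ni-chelate acceptor beads (5X, 50 ug/mL).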
TRPML1 inh – qHTS for Inhibitors of the Human Mucolipin Transient Receptor Potential 1 (TRPML1); 390,000 compounds, 0.02% hits; Mucolipin-1 (Homo sapiens), Q9GZU1; TRPML1-inducible cells, Ca2+ dye fluorescence, FDSS; stronger effect = lower value; inhibition of EC80 agonist-evoked calcium signal; activity change, negative = inhibition, % (concentration not given with the values); in the data active means activity change below about -50%; inconclusive means about -30% to -50%; inactive means above about -30%;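 note: stimulus is agonist 54-4 at its EC80 concentration; % is set by controls: 0 for no effect and ±100 for the full control effect; the text of the record puts the active cut at -80%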
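Tet-induced TRPML1-DL cells loaded with Ca8 no-wash calcium dye were read kinetically on FDSS. Compound addition was followed by EC80 agonist 54-4 (4 uM final); inhibition was read over 110 s.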
TRPV1 potentiator – HTS Assay for Compounds that Act as Potentiators of the Vanilloid Receptor 1. TRPV1-expressing cells, Fluo-8 calcium influx, capsaicin EC20 potentiation; host cell line not named in the record; control for the full effect not named in the record. potentiation, % at 8.33 µM. 320,000 compounds, 0.02% hits. AID 540277, 2011; active means potentiation above 80%; inconclusive means 30% to 80%; inactive means below 30%; note: 0% is about no effect
Target sequence (Q8NER1 whole entry, looked up): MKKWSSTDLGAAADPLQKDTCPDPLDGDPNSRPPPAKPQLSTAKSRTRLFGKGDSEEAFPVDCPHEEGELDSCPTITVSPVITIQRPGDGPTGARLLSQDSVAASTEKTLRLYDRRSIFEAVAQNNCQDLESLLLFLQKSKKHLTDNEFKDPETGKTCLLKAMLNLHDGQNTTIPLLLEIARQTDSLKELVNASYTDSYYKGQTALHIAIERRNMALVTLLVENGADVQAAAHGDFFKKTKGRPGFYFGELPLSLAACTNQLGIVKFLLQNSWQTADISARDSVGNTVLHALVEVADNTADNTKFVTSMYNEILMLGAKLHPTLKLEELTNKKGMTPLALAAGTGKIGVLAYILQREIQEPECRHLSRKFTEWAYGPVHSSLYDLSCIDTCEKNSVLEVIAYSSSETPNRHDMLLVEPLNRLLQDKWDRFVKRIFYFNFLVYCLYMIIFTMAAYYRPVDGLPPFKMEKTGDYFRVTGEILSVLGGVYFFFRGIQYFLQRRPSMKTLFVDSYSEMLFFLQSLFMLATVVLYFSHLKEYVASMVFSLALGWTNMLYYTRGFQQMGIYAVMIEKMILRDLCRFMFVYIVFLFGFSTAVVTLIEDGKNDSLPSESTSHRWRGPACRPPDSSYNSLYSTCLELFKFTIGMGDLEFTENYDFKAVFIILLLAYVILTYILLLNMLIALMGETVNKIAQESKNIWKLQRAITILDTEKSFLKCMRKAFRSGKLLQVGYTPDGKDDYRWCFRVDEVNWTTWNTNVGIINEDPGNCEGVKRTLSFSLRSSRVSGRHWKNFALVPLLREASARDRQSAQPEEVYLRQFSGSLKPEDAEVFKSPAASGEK
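TRPV1-expressing cells were cultured overnight at 35.5C and loaded with Fluo-8 calcium dye for 40 to 90 min at room temperature. After a 10 s baseline, compound was added and calcium influx was read kinetically for 3 min (ex 480/em 520 nm).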
TRPML1 ag – qHTS for Agonists of the Human Mucolipin Transient Receptor Potential 1 (TRPML1). TRPML1-expressing cells, Ca2+ dye fluorescence, FDSS; host cell line not named in the record; reference of the full effect not given here. activation, % (no concentration beside the values). 410,000 compounds, 0.12% hits. AID 624414, 2012; in the data active = activation above about 50%; inconclusive = about 30% to 50%; inactive = below about 30%; note: 0% is about no effect; the text of the record puts the active cut at 80%
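Cells: TRPML1-DL, 1X Tet inducer, ~16 h at 37 degrees C/5% CO2. Dye: ABD Ca8 no-wash + quencher, 45-90 min RT. Read: 10 s baseline, compound add, 110 s agonist phase; 54-4 EC80 (4uM final), 110 s antagonist phase.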
An asterisk follows results filed as active; ? = inconclusive; . = no result given; & = joins results of further samples.

SMILES | CtBP-E1A blk | D2 potentiator | Six1-Eya2 inh | TRPML1 inh | TRPV1 potentiator | TRPML1 ag
O=C(NCCc1c[nH]c2ccccc12)C1CCC(=O)N(CCc2cccc(F)c2)C1 (stereo not drawn) | 23 | -2 | 9 | -1 | 30 | -0.1
C=CCN1C(=O)OC2(CCCCC2)C1(C)O (stereo not drawn) | 0 | -9 | 9 | -10 | -6 | 0.0
O=S(=O)(Nc1ccccn1)c1ccc(Cl)cc1 | 0 | 2 | 5 | 4 | -2 | -0.1
C=CCn1c(O)c(N=Nc2ccccc2[N+](=O)[O-])c2ccccc21 | -7 | -4 | -15 | 16 | . | -0.6
COc1cccc(N2CCN(Cc3ccco3)CC2)c1 | 0 | -10 | -5 | -15 | 1 | -0.5
COc1cc(C)c(S(=O)(=O)N2CCN(C)CC2)cc1C | 0 | -8 | 4 | 14 | 1 | -0.1
COC(=O)C1CCN(C(=O)COC(=O)c2oc3ccccc3c2C)CC1 | 5 | 0 | 4 | -6 | -10 | -0.5
O=C(Nc1nc2c(s1)COc1ccccc1-2)c1cccs1 | 0 | -6 | 0 | 3 | -6 | 1.0
CC(C)[C@H](NC(=O)c1ccccc1Cl)C(=O)Nc1nc(-c2ccccn2)cs1 | -83* | -15 | -80* | 0 | 2 | -1.2
CCN(C[C@H]1N[C@@](Cc2ccccc2)(C(=O)OC)[C@H]2C(=O)N(Cc3ccccc3)C(=O)[C@@H]12)C(=O)c1ccccc1 | 4 | . | -6 | -18 | . | 4.7
COc1ccc(C(O)P(=O)(OCC(C)C)c2ccc(N(C)C)cc2)c(OC)c1 (stereo not drawn) | -4 | -13 | 1 | 1 | 14 | 3.5
CCOC(=O)C1=C(COC(=O)COc2cccc(C)c2C)NC(=O)NC1C (stereo not drawn) | . | 13 | 2 | 22 | -10 | -1.8
CCCc1cnc(Nc2nc(C(N)Cc3ccc(C(F)(F)F)cc3)cs2)nc1 (stereo not drawn) | -1 | -1 | 1 | . | . | -0.4
CCN(CC)C(=O)c1ccccc1NS(C)(=O)=O | 5 | 0 | 7 | -19 | 5 | -0.5
NC(=O)C1CCCN(C(=O)CNC(=O)C23CC4CC(CC(C4)C2)C3)C1 (stereo not drawn) | 6 | -26 | 2 | 10 | -9 | 0.1
O=C(NCc1ccccc1Cl)c1ccc2c(c1)SC1=NS(=O)(=O)CCN12 | . | -11 | 5 | -12 | -10 | -0.2
CCNC(=O)CC1C(=O)N(CC)C(=S)N1NC(=O)c1ccccc1 (stereo not drawn) | 4 | -1 | -2 | 43 | -4 | 5.5
Cc1nn(C)cc1/C=C/C(=O)c1cccs1 | 0 | -6 | 4 | -2 | -31 | -0.3
Cc1ccc(-n2nc3ccc(NC(=O)C(C)C)cc3n2)cc1 | -24 | -4 | -9 | 16 | 10 | 3.6
Cn1cc(CN2CCCC(CO)(Cc3ccccc3)C2)c2ccccc21 (stereo not drawn) | -9 | -26 | -1 | -11 | 9 | -0.8

Printed as active in CtBP-E1A blk, among the entries above:
structure | CtBP-E1A blk | D2 potentiator | Six1-Eya2 inh | TRPML1 inh
CC(C)[C@H](NC(=O)c1ccccc1Cl)C(=O)Nc1nc(-c2ccccn2)cs1 | -83* | -15 | -80* | 0

Arranged by heavy-atom count (ascending): some entries from above
SMILES | CtBP-E1A blk | D2 potentiator | Six1-Eya2 inh | TRPML1 inh | TRPV1 potentiator | TRPML1 ag
CCN(CC)C(=O)c1ccccc1NS(C)(=O)=O | 5 | 0 | 7 | -19 | 5 | -0.5
O=C(Nc1nc2c(s1)COc1ccccc1-2)c1cccs1 | 0 | -6 | 0 | 3 | -6 | 1.0
CCOC(=O)C1=C(COC(=O)COc2cccc(C)c2C)NC(=O)NC1C (stereo not drawn) | . | 13 | 2 | 22 | -10 | -1.8

Other entries:
SMILES | CtBP-E1A blk | D2 potentiator | Six1-Eya2 inh | TRPML1 inh | TRPV1 potentiator | TRPML1 ag
CC(C)OC(=O)C(CC(=O)O)NCc1ccccc1 (stereo not drawn) | 2 | -2 | 11 | 9 | 8 | -1.1
O=C1Nc2ccccc2/C1=C/c1ccccc1F | 2 | 7 | -6 | -20 | 5 | 0.6
COc1ccccc1NC(=O)CCS(=O)(=O)c1ccccc1 | 6 | -5 | 3 | 21 | -2 | -0.6
Cc1cc(N2CCOCC2)n2nc(C)c(-c3ccc(Cl)cc3)c2n1 | 8 | -4 | 8 | -13 | 2 | -0.3
CCCCC(CC)CNC(=O)CN(C)S(=O)(=O)c1cccc2nsnc12 (stereo not drawn) | -2 | -7 | 0 | -2 | -4 | 1.8
Cn1c(=O)c2c(nc(SCCN3CCOCC3)n2Cc2ccc(Cl)cc2)n(C)c1=O | -2 | -4 | -1 | -9 | . | -0.2
CCCCOc1ccc(C(=O)N2CCNC(=O)C2)cc1 | 2 | -3 | 4 | 1 | -2 | -0.1
Cc1occc1-c1nnc(SCc2nc3ccccc3c(=O)n2CC#N)n1C | -10 | 6 | -7 | -10 | 1 | 0.1
COc1ccc(S(=O)(=O)N(C)C)cc1NCC(=O)Nc1ccc(Br)cc1F | 2 | -24 | -1 | -9 | -3 | 0.4
COc1ccccc1-n1c(-c2cccnc2)n[nH]c1=S | -1 | 17 | 2 | 13 | -6 | -0.2
CC1(C)Nc2ccc(O)cc2-c2c1ssc2=S | -15 | 28 | ? | 14 | -1 | 1.7
CCCC(C)NC(=O)Cc1ccc(Br)cc1 (stereo not drawn) | 5 | -13 | 2 | -4 | -22 | -0.2
O=C(CN1C(=O)S/C(=C/c2cccn2-c2ccc(O)cc2)C1=O)N1CCCC1 | -11 | 2 | -14 | 7 | 4 | -0.5
COc1ccccc1NS(=O)(=O)c1cc(C)ccc1C | 5 | 8 | 19 | 23 | 1 | 1.6
COc1ccccc1/C=C(/CC(=O)NCc1ccccc1)c1nc2ccccc2s1 | 1 | -9 | 6 | 34 | 15 | 4.0
COC(=O)CSc1cc(C)nc2ccc(OC)cc12 | 2 | 2 | 6 | -3 | 3 | -0.2
COc1cc(CNCCN2CCOCC2)ccc1OCC(=O)NC(C)(C)C | 6 | -4 | 1 | 17 | -3 | -0.7
CCc1ccccc1-n1ncc(C(=O)Nc2ccccc2OC)c1C | 0 | -4 | -9 | 2 | -4 | 2.0
COc1cc(CC(=O)OCC(=O)N2CCCCC2)cc(OC)c1OC | 5 | -2 | 8 | 7 | 1 | -0.9
C=CCN(CC(=O)NC1CC1)S(=O)(=O)c1cccc(C(F)(F)F)c1 | 6 | -3 | 3 | -10 | . | 0.0
Cc1ccccc1-c1nc(-c2ccccn2)no1 | 0 | -1 | -13 | 11 | 0 | -0.1
Cc1cccc(OCCC(=O)NCC(c2ccco2)N2CCCCC2)c1 (stereo not drawn) | -2 | -7 | 0 | 4 | -6 | -0.6
Nc1ccccc1SCc1cc([N+](=O)[O-])cc2c1OCOC2 | -1 | -11 | -7 | -6 | 6 | -1.0
CCOC(=O)N1CCN(c2nc(=S)n(-c3ccccc3)c(C)c2C(C)=O)CC1 | -3 | 8 | -3 | 0 | -7 | -0.1
COc1cc2c(cc1OC)C(c1cc3ccccc3oc1=O)=NC(C)(C)C2 | 8 | -18 | 6 | 11 | 16 | -0.7
Cc1ccc(S(=O)(=O)Nc2ccc3c(c2)nc(CCN2CCN(c4ccccn4)CC2)n3C)cc1 | -7 | -25 | -3 | -16 | 22 | -0.7
Cc1ccc2cccc(OCC(=O)N(C)CC(=O)Nc3ccc(F)cc3)c2n1 | . | -11 | 5 | 4 | 8 | 0.2
Cc1nn(CC2CC2)c(=O)n1-c1ccc(F)cc1 | -10 | -2 | 8 | -8 | 12 | -1.3
CC(C)Cc1nc(SCC(=O)NCc2ccccc2)n[nH]1 | 3 | -4 | -3 | 0 | -16 | 1.5
C/C(CC(=O)Nc1cccc(C(F)(F)F)c1)=N\NC(=O)c1ccncc1 | 0 | -5 | -2 | 12 | -9 | -0.5
COC(=O)c1ccc(COc2ccc(C=O)cc2OC)o1 | 8 | -2 | 6 | -4 | 16 | 0.3
CCOC(=O)c1ccc(CNC(=O)c2cc(C(C)(C)C)oc2C)o1 | -10 | 7 | -7 | 2 | 2 | 2.1
COc1ccc(N2CCN(C(=O)Cc3ccc(Cl)cc3)CC2)cc1 | -12 | -9 | ? | 2 | -10 | -0.2
CCOC(=O)c1ccc(NC(=S)N2CCSC2c2ccc(Cl)cc2)cc1 (stereo not drawn) | -3 | -2 | 0 | -2 | -11 | 17
COc1cccc(Cn2c(N)c(C#N)c3nc4ccccc4nc32)c1OC | -29 | -1 | -11 | 12 | -6 | 2.1
COc1ccc(C(=O)N/N=C/c2ccc(OC)c(CN3CCCc4ccccc43)c2)cc1 | ? | 1 | ? | 17 | 3 | -0.9
Cc1ccc(S(=O)(=O)N2CCN(C(=O)c3ccco3)CC2)cc1C | 0 | -5 | 0 | . | -10 | .
CCN(CC)CCn1nc(C)nc1-c1ccccc1O | 0 | -14 | -4 | 0 | 14 | 0.0
COc1cccc(-c2ccc(NC(=O)C3CCCN(Cc4nccn4C)C3)cc2)c1 (stereo not drawn) | 0 | -30 | -24 | 8 | 3 | 0.4
O=C(N/N=C/c1cc2c(cc1Br)OCO2)c1cccnc1 | -10 | -12 | -3 | 11 | -4 | 1.7
CCN(CC)C(=O)CSc1nc2cc3c(cc2c(=O)n1Cc1ccc2c(c1)OCO2)OCO3 | 0 | -6 | 1 | 0 | -4 | -1.0
COc1ccccc1-n1cnnc1SCC(=O)Nc1ccccc1 | 5 | -9 | 5 | 0 | 3 | -0.3
COc1ccc(N2CCN(C(=O)CCCCCn3c(=S)[nH]c4ccc(N5CCOCC5)cc4c3=O)CC2)cc1 | -7 | -6 | -10 | 18 | . | -0.3
Clc1ccc(OCc2cn3ccccc3n2)c2ncccc12 | -19 | -5 | -18 | -9 | -23 | -0.4
CC(C)NC(=O)C1(C)CCN1C(=O)c1cccc(Cl)c1 (stereo not drawn) | 6 | 2 | 2 | 2 | . | -0.2
COc1ccc(CN2[C@@H](CC(=O)O)c3cc(F)ccc3S2(=O)=O)cc1 | -22 | -6 | 32 | 22 | . | 0.7&-0.5
O=C1C=C(c2cccc(O)c2)C[C@@H](c2ccc(F)cc2)C1 | -12 | -9 | -10 | 30 | 2 | 1.5
CC(C)c1ccc(NC(=O)COC(=O)c2ccc(CN3CCCC3=O)cc2)cc1 | 5 | 1 | 0 | -9 | 0 | 2.8
Cc1ccc(NC(=O)COC(=O)c2c(-c3ccccc3)noc2C)cc1 | 9 | 1 | 6 | 27 | -14 | 4.4

Entries of single compounds, looked up by structure:
O=C1C=C(c2cccc(O)c2)C[C@@H](c2ccc(F)cc2)C1 reads CtBP-E1A blk: -12; D2 potentiator: -9; Six1-Eya2 inh: -10; TRPML1 inh: 30; TRPV1 potentiator: 2; TRPML1 ag: 1.5
COc1ccc(N2CCN(C(=O)CCCCCn3c(=S)[nH]c4ccc(N5CCOCC5)cc4c3=O)CC2)cc1 reads CtBP-E1A blk: -7; D2 potentiator: -6; Six1-Eya2 inh: -10; TRPML1 inh: 18; TRPV1 potentiator: .; TRPML1 ag: -0.3

Screening results (PubChem BioAssay)
